Screening results from PubChem BioAssay.
Rce1 inh: blocks yeast Ras-converting enzyme. Q03530. yeast membranes, quenched prenylated peptide cleavage fluorescence. calls only. 0.27% of 290,000 active;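 active means fall in fluorescence gain of 50% or more versus controls, with final raw signal at or below 3038400; inconclusive means same 50% fall but final raw signal above 3038400; inactive means fall in fluorescence gain under 50%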;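 further: plate controls were neutral control wells for no effect and wells lacking membranes for full effect; tested at 10 µM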
Target sequence (Q03530 whole entry, looked up): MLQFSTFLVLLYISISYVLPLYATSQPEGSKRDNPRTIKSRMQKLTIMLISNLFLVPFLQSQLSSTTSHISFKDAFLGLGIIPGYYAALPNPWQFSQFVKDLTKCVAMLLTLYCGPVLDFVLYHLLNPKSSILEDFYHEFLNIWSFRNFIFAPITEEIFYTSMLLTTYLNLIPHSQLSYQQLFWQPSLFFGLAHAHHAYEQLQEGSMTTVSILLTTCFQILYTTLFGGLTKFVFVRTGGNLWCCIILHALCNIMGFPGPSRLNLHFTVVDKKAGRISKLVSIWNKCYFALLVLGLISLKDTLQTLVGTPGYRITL
PABP polyA inh: blocks human PABP binding to poly(A) RNA; 1% of 290,000 active; AID 2014; fluorescence polarization; inhibition, % at 35 µM;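 active means 50% or more with normal probe brightness, or confirmed in later tests; inconclusive means above 50% with abnormal brightness, or retests that disagree; inactive means below 50% or failed in later tests; about a fifth of its hits are not listed in these tables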;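 further: calls also rest on retests at 20 µM and on dose response follow-up; controls were probe without protein and protein plus probe with vehicle; some compounds called inactive have numbers as strong as hits; many hits fall short of the cut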
CSC inhib: blocks cancer stem cells. AID 2717. inhibition, % at 7.5 µM. cancer stem cell-like cells viability, luminescence. 1.1% of 300,000 active;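 active means mean at 75% or more and at least half the replicates too; inconclusive means mean and replicates disagree; tested in HMLE shEcad cells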;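 further: 0% = median of negative and 100% = median of positive control wells; the first replicate is given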
HIV Env fusion: blocks HIV Env-driven cell-cell fusion | HeLa-JRFL Env/CEM21 cell fusion, luciferase | inhibition, % at 12.3 µM | 1.1% of 360,000 active | AID 651610;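 active means mean replicate inhibition score of at least 50 and every replicate individually at or above 50; inconclusive means only one of the two criteria met; inactive means mean below 50 and not all replicates reaching 50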;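 further: 0% = plate neutral controls and 100% = maraviroc near 300 nM; one replicate is shown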
MT1-MMP act inh: MT1-MMP (human) activation inhibition; HT1080 RFP-PRO-GFP cells, GFP/RFP ratio fluorescence, overnight; percent of plate control window, DMSO zero; GFP/RFP ratio change, % at 20 µM; AID 651647; 0.061% of 360,000 active;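 active means GFP/RFP ratio change of at least 30% with cell ATP level not reduced by more than half and red fluorescence within 50% of control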; further: strong numbers were not always called active
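Assay system – RFP-PRO-GFP reporter HT1080 cells · Compound dosing – single dose of 20 µM compound, 1% DMSO final · Incubation – overnight compound exposure at 37 °C · Measure – GFP/RFP fluorescence ratio · Benchmarks – DMSO wells and RFP-L50D-GFP cells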
Yeast UUG start: modulators of start codon recognition fidelity in yeast. S. cerevisiae UUG-firefly luciferase reporter, luminescence/redox ratio. activity score, % at 18.7 µM. 0.13% of 350,000 active. AID 602363;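 active means replicate mean at a twofold rise or more, about +100% in these data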;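 further: firefly luciferase made from a UUG start codon reports start codon fidelity; reporter light over untreated wells divided by growth signal over untreated wells; some hits fall short of that in this replicate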
eIF4H FP inh: inhibitors of RNA binding by human eIF4H. Q15056. 0.94% of 290,000 active. eIF4H fluorescence polarization binding assay. inhibition, % at 35 µM. AID 2012;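 active means 50% or more with normal probe brightness, or confirmed in later tests; inconclusive means above 50% with abnormal brightness, or retests that disagree; inactive means below 50% or failed in later tests; about a fifth of its hits are not listed in these tables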;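 further: calls also rest on retests at 20 µM and on dose response follow-up; 0% = protein and probe with vehicle and 100% = probe without protein; strong numbers were not always called active; many hits fall short of the cut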
MT1-MMP act inh RFP: recorded beside MT1-MMP act inh, whose call it bears; RFP signal change, %; measured here: RFP expression control read;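 0 = vehicle wells; hits needed this value within 50% of zero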
Numbers without * were called inactive; i = inactive; ? = inconclusive; / = no result given; & = joins results of further samples. Only part of the results is shown. The share of hits here may be higher or lower than overall.

SMILES	Rce1 inh	PABP polyA inh	CSC inhib	HIV Env fusion	MT1-MMP act inh	MT1-MMP act inh RFP	Yeast UUG start	eIF4H FP inh
CCn1c(=O)c2cc(S(=O)(=O)NC3CCCCC3)ccc2n(CC)c1=O	i	0	1	11	-4	0	1	2
Cc1cc(-c2nnc(CCC(=O)N(CC3CCC3)CC3CCCO3)o2)no1 (centres undefined)	i	-1	-3	-14	2	2	-33	-9
NS(=O)(=O)c1ccc(NC(=O)COC(=O)CCc2ccccc2)cc1	i	2	/	19	2	2	-1	-4
CCOCCCNC(=O)C(NC(=O)c1ccc(NC(C)=O)cc1)c1ccc(OC)cc1 (centres undefined)	i	0	-9	0	9	2	/	-10
CCC(C)(C)n1nnnc1C(c1cc2ccc(OC)cc2[nH]c1=O)N1CCc2ccccc2C1 (centres undefined)	i	12	7	8	-8	1	6	0
Cc1c[nH]c2cccc(OCC(O)CNC(C)(C)C)c12 (centres undefined)	i	0	/	-93	0	8	-8	1
CCc1ccc([C@H]2[C@@H]3C(=O)C[C@@H]4C(=O)N(C)C(=O)[C@@H]4[C@@H]3CN2S(=O)(=O)c2ccc(C)cc2)cc1	/	/	/	-14	2	3	11	/
CCOC(=O)CCSc1nc(C)c2ccccc2n1	i	-3	-9	/	8	8	-8	-10
COc1cc(OC)cc(C(=O)NCC2CCCN(Cc3ccc(SC)cc3)C2)c1 (centres undefined)	i	-3	-1	24	2	3	1	0
COc1ccccc1N1CN(CCc2ccccc2)CNC1=S	i	2	-5	7	0	-2	/	3
COc1cc(C(=O)Nc2oc(-c3ccccc3)c(-c3ccccc3)c2C#N)cc(OC)c1OC	i	-5	33	-1	-5	-17	-6	2
Cc1ccc(S(=O)(=O)n2nc(OC(=O)C(C)(C)C)cc2N)cc1	i	2	-4	6	13	4	-6	-11
COc1cc(NS(=O)(=O)c2ccc(NC(=S)NC(=O)c3sc4ccccc4c3Cl)cc2)ncn1	/	5	9	-14	0	1	-14	-1
COc1ccc(NC(=O)C2(C)Cc3c(-c4ccccc4)ccnc3O2)cc1OC (centres undefined)	/	/	/	-7	0	-12	-1	/
COc1ccccc1-n1cnnc1SCC(=O)c1c[nH]c2ccccc12	i	-10	/	1	-2	-4	-5	1
Cc1cccc(CSc2nnnn2-c2ccccc2)c1	i	2	/	/	-3	-4	/	-2
O=C(NCc1ccco1)C1(S(=O)(=O)c2ccc(Cl)cc2)CC1	i	0	-5	-32	-1	1	-19	2
C#CCOc1ccc2c(C)cc(=O)oc2c1	i	-2	-13	7	0	7	1&-12	-4
N#C/C(=C\c1ccc(N2CCOCC2)o1)C(=O)NCCc1ccccc1	i	?	-18	36	-149	-3	/	?
O=C(Oc1cccc(F)c1)c1ccc2c(=O)n3c(nc2c1)CCC3	i	/	-2	4	-3	1	-20	/
O=C(NC1CCS(=O)(=O)C1)c1ccc(S(=O)(=O)N2CCCCC2)cc1 (centres undefined)	i	2	-5	1	7	9	5	7
O=C(NCCN1CCCC1)c1ccc(Cl)cc1Cl	i	-13	-12	-1	-1	6	-1	6
COc1ccc(CSc2n[nH]c(C)n2)cc1[N+](=O)[O-]	i	5	-7	-7	5	3	/	0
CCc1ccccc1N(CC(=O)NCCc1ccccc1)C(=O)CCC(=O)Nc1ccccn1	i	-4	-9	-20	-4	-2	2	6
CCOP(=O)(OCC)c1ccc2ccc3ccccc3c(=O)c2c1	/	/	/	9	0	-1	3	/
CCOC(=O)N1CCC(NC(=O)C2CCN(C(=O)c3cc4sccc4n3CC)CC2)CC1	i	3	-9	2	2	-8	-12	2
CCn1c2ccccc2c2cc(NC(=O)CSc3nnc(-c4cccc(Cl)c4)o3)ccc21	i	1	8	/	2	2	-19	-3
COc1ccc(CCNC(=O)[C@H](CCSC)NC(=O)N2CCn3c2nc2ccccc23)cc1OC	i	-9	-3	5	3	3	-15	-22
O=c1[nH]c(N2CCCCC2)nc2ncn(Cc3ccccc3)c12	i	-11	-2	1	4	5	-6	5
Cc1ccccc1Nc1nc(-c2sc(NC(=O)c3cccc(Cl)c3)nc2C)cs1	i	-12	-1	/	/	/	/	-18
CCC(C)c1ccc(NC(=O)C2CCCN(c3ncccn3)C2)cc1 (centres undefined)	i	-8	16	-168	-10	-17	-2	-10
COc1ccc(-n2c(SCC(=O)N/N=C(\C)c3cccnc3)nc3ccccc3c2=O)cc1	i	0	-8	27	0	-2	-13	-2
c1ccc(OCCCc2nc(-c3cccnc3)no2)cc1	i	-2	-4	/	-4	-4	-21	-9
OC[C@H]1OC(O)[C@H](O)[C@@H]1O (some centres undefined)	/	/	-13	14	0	5	6	/
Cc1ccccc1NC(=O)Cc1nc(COC(=O)c2cc([N+](=O)[O-])ccc2NCCO)cs1	i	/	-6	4	1	-12	-23	/
CN(C)CCn1c(NC(=O)c2ccc(Cl)cc2)nc2ccccc21	i	9	7	-38	6	0	-22	3

A second format for 3 compounds above.
Under each structure: Rce1 inh	PABP polyA inh	CSC inhib	HIV Env fusion	MT1-MMP act inh	MT1-MMP act inh RFP	Yeast UUG start	eIF4H FP inh
- CCn1c2ccccc2c2cc(NC(=O)CSc3nnc(-c4cccc(Cl)c4)o3)ccc21
  i	1	8	/	2	2	-19	-3
- COc1ccc(CCNC(=O)[C@H](CCSC)NC(=O)N2CCn3c2nc2ccccc23)cc1OC
  i	-9	-3	5	3	3	-15	-22
- O=c1[nH]c(N2CCCCC2)nc2ncn(Cc3ccccc3)c12
  i	-11	-2	1	4	5	-6	5

Record cards, as listed above. Order of values: Rce1 inh | PABP polyA inh | CSC inhib | HIV Env fusion | MT1-MMP act inh | MT1-MMP act inh RFP | Yeast UUG start | eIF4H FP inh
CCC(C)c1ccc(NC(=O)C2CCCN(c3ncccn3)C2)cc1 (centres undefined) is listed with i | -8 | 16 | -168 | -10 | -17 | -2 | -10
O=c1[nH]c(N2CCCCC2)nc2ncn(Cc3ccccc3)c12 is listed with i | -11 | -2 | 1 | 4 | 5 | -6 | 5
COc1ccc(-n2c(SCC(=O)N/N=C(\C)c3cccnc3)nc3ccccc3c2=O)cc1 is listed with i | 0 | -8 | 27 | 0 | -2 | -13 | -2
OC[C@H]1OC(O)[C@H](O)[C@@H]1O (some centres undefined) is listed with / | / | -13 | 14 | 0 | 5 | 6 | /
COc1ccc(CCNC(=O)[C@H](CCSC)NC(=O)N2CCn3c2nc2ccccc23)cc1OC is listed with i | -9 | -3 | 5 | 3 | 3 | -15 | -22

Later entries:
SMILES	Rce1 inh	PABP polyA inh	CSC inhib	HIV Env fusion	MT1-MMP act inh	MT1-MMP act inh RFP	Yeast UUG start	eIF4H FP inh
CCCOC(=O)c1c(NC(=O)/C=C/c2cnn(C)c2C)sc(C(=O)OCC)c1C	i	-5	/	2	-3	-6	0	-6
CCOc1ccccc1CN1CCNC(=O)C1CC(=O)N(C)CCc1cnn(C)c1 (centres undefined)	i	9	-9	-4	-3	3	-10	3
C/C(=N\NC(=O)C1(C)CC1(Br)Br)c1cccc(NC(=O)C(C)(C)C)c1 (centres undefined)	i	2	-11	/	-5	-4	/	-1
S=C(N/N=C/c1cccc2ccccc12)Nc1cccc(Cl)c1	i	6	22	-445	2	1	-17	8
O=C(c1cccc([N+](=O)[O-])c1)N1CCN(C/C=C/c2ccccc2)CC1	i	-1	-8	2	2	-3	/	-3
Cc1cc(S(=O)(=O)NCCCn2ccnc2)c(C)cc1Cl	i	-5	-13	6	1	-4	-27	-1
CCN(c1cccc2ccccc12)S(=O)(=O)c1cccs1	/	/	-4	14	3	4	-8	/
O=C1CC(c2ccc3c(c2)OCO3)C2=C(CCCC2=O)N1 (centres undefined)	i	0	-5	/	-1	1	-19	-4
CCOC(=O)c1c(C)[nH]c(C)c1C(=O)CSc1nnc(-c2ccc(OC(F)F)cc2)o1	i	-2	-7	/	0	-11	/	-9
O=C(Cc1n[nH]c(=O)c2ccccc12)NCc1ccccc1	i	1	-8	-55	1	-3	-11	-1
CN(C)CCNC(=O)c1cccc(S(=O)(=O)Nc2ccccc2F)c1	i	7	10	8	-1	2	/	4
O=C(OCC(=O)N(CCc1ccccc1)Cc1ccccc1)c1ccccc1O	i	/	11	3	/	/	/	/
CCC(=O)Nc1nnc(SCc2ccc(F)cc2)s1	i	-16	7	/	-1	1	-9	-10
CCCc1[nH]n(-c2ccc([N+](=O)[O-])cc2)c(=O)c1C=NCCc1ccc(OC)c(OC)c1	i	7	24	14	3	2	/	3
O=C(NCc1ccco1)c1nc2c(nnn2Cc2cccc(Cl)c2)c(=O)[nH]1	i	1	0	-40	11	5	/	-11
Cc1onc(-c2ccccc2Cl)c1C(=O)OCc1cnc(Cl)s1	i	11	5	-6	-1	-5	-9	7
COc1ccc([N+](=O)[O-])cc1NC(=O)c1ccc(Br)s1	i	-10	9	11	-4	3	-10	-1
CC(=O)NC(=S)Nc1ccccc1N1CCN(C(=O)c2ccccc2)CC1	i	8	-5	10	6	-8	-17	12
Cc1cccn2cc(-c3ccc4c(c3)NC(=O)CO4)nc12	i	4	-4	-87	1	-1	-14	-10
Cc1ccc(NCc2nnc(SCC(=O)Nc3ccccc3)n2CC2CCCO2)c(C)c1 (centres undefined)	i	-2	16	-51	15	0	/	0
Cc1ccc(C2Nc3cccc4cccc(c34)N2)cc1	i	40	3	5	0	4	0	41
CN1CCN(C(CNS(=O)(=O)c2ccc([N+](=O)[O-])cc2)c2ccc(F)cc2)CC1 (centres undefined)	i	/	/	-8	0	3	-27	/
Cc1ccc(S(=O)(=O)N2CCOCC2)cc1C(=O)Nc1ccccc1N1CCCC1	i	/	-7	/	-4	-1	-7	/
COc1ccc(/C=N/NC(=O)c2cccnc2)cc1CN1CCc2ccccc2C1	i	2	1	6	5	3	-12	2
O=C(Nc1ccccc1O)c1ccccc1O	i	1	18	16	2	-18	-18	-5
